# Screening data: PubChem BioAssay, several laboratories
# Calb FLC – C. albicans growth modulation with fluconazole. 300,000 tested, 0.57% active. growth inhibition, % (test concentration not listed). C. albicans CaCi-2 (fluconazole-resistant clinical isolate) + fluconazole, Alamar Blue growth, 48 h;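 active means most replicates above 75%; inconclusive means exactly half above 75%; inactive means most below 75%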;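 further: all wells also contain fluconazole at 8 µg/ml as a sub-toxic cotreatment; 0% = median of DMSO wells and 100% = median of geldanamycin control wells; wells of about 8 µL received 7.5 nL stock; the first replicate is given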
# Ecoli rRNA inh – selective bacterial rRNA inhibition in E. coli. E. coli WT GFP vs humanized-ribosome RFP mutants, fluorescence, 24 h; hits give low values; DMSO median 0, no signal -100. GFP signal change (wild-type ribosome), % (test concentration not listed). 350,000 tested, 1.6% active. AID 720706;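 active means significant combined selectivity score with lowered wild-type GFP, culture density cut under 30%, mutant RFP and density less affected; inactive means any of these conditions unmet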; further: one replicate is shown; some compounds called inactive have numbers as strong as hits
# A1 inh – inhibitors of the anti-apoptotic protein A1, read as caspase activation. MEF A1-2A-BIM cells, Caspase-Glo 3/7 luminescence, 3 h; percent of clofoctol response, vehicle zero. caspase activation, % (no concentration beside the values). 330,000 tested, 0.066% active;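 active means over half of replicate activation scores above 10%, or exactly half above 10 with the replicate mean above 10; inconclusive means replicate mean below 10 yet half the replicates above 10; inactive means over half of replicates below 10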;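 further: wells of about 30 µL received 50 nL stock; many hits fall short of the cut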
# AF4-AF9 inh – MLL-AF4/AF9 protein interaction inhibition; P42568; AlphaScreen, biotin-AF4 peptide binding to FLAG-AF9; inhibition, % at 10 µM; 350,000 tested, 0.47% active; AID 651704;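 active means every replicate reaching a set inhibition limit, whatever the replicate mean, cut at about 25% in these data; inconclusive means mean inhibition reaches that limit but some replicates miss it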;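 further: 0% = plate neutral control median and 100% = total signal loss; the record names both 10 and 1 µM as test concentration; the first replicate is given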
# Target sequence (P42568 whole entry, looked up): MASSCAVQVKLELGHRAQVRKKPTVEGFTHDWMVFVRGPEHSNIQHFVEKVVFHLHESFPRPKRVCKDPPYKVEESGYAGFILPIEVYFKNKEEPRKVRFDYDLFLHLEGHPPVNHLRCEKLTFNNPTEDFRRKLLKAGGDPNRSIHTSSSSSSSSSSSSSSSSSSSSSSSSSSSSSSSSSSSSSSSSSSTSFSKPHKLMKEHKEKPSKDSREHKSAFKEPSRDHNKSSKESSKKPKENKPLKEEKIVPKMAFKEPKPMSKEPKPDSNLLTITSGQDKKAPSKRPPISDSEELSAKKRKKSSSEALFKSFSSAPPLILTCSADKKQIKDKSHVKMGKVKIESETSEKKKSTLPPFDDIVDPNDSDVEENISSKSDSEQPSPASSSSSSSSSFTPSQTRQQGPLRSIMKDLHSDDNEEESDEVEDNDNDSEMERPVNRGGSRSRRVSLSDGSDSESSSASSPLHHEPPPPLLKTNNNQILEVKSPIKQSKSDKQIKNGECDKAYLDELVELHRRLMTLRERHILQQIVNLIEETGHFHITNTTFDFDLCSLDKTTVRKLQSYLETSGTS
# Beta apoptosis – blocks beta cell apoptosis; INS-1E cytokine-induced death, ATP luminescence, 48 h; percent of positive-control rescue, neutral wells zero; protection from apoptosis, % (concentration not given with the values); 300,000 tested, 0.8% active;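 active means all replicates at 75% or more, or half of them and the mean; inconclusive means half reach 75% but not the mean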;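 further: 0% = cytokine-treated negative control wells and 100% = positive control rescue; higher means more ATP so stronger rescue from cytokine killing; wells of about 40 µL received 100 nL stock; the first replicate is given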
# RanGTP-Impb inh – disruptors of Ran-importin-beta complex formation – biochemical, FRET, CFP-Ran, YFP-importin-beta, homogeneous, primary screen; cell-free CFP-Ran/YFP-importin-beta FRET ratio; inhibition, % (concentration not given with the values); 300,000 tested, 1.1% active;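 active means most replicates above 15%; inconclusive means exactly half above 15%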;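 further: 0% = DMSO wells and 100% = Ran loaded with GDP instead of GTP; wells of about 40 µL received 100 nL stock; the first replicate is given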
# T cruzi inh – T. cruzi replication inhibition | T. cruzi beta-gal in NIH3T3, luminescence, 90 h | 300,000 tested, 1.4% active | inhibition, % (no concentration beside the values);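 active means mean inhibition across valid replicates above about 55%, limit read from the data; inconclusive means mean below that limit but half or more replicates reach it; inactive means mean below it, under half of replicates reach it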;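 further: signal also drops with host cell toxicity which is not excluded here; 0% = plate median of DMSO wells and 100% = zero luminescence signal; higher percent means less beta-gal luminescence so fewer parasites; stock transfer was 50 nL into about 50 µL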
# Vif A3G – inhibitors of Vif binding to APOBEC3G peptide, primary screen, biochemical, TR-FRET, GST-Vif 1-94, biotin-A3G peptide, dose response retest (AID 1117319); TR-FRET GST-Vif / biotin-A3G peptide binding; higher % means a stronger effect; test concentration not given here; strong numbers were not always called active; inhibition, %, or IC50 in µM where a hit was titrated; 260,000 tested, 0.57% active;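 active means above the screen mean plus three standard deviations and confirmed in dose response; inconclusive means results disagree or hit not tested in dose response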;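 further: Vif residues 1-94 fused to GST binding biotinylated APOBEC3G peptide 110-148; 0% = full assay without inhibitor and 100% = GST in place of GST-Vif; retest series ran down from 100 µM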
# Ecoli rRNA inh OD600 – second read-out of Ecoli rRNA inh, no call of its own (marks repeat the call); OD600 change, %; measured here: OD600 growth;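 optical density of the mix in the first replicate; 0 = DMSO median and -100 = no signal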
# Ecoli rRNA inh RFP – also measured in Ecoli rRNA inh; calls as there; RFP signal change, %; measured here: RFP humanized mutant strains;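 first replicate; 0 = DMSO median and -100 = no signal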
# Numbers without * were called inactive; ? = inconclusive; / = no result given; & = joins results of further samples.
SMILES,Calb FLC,Ecoli rRNA inh,Ecoli rRNA inh OD600,Ecoli rRNA inh RFP,A1 inh,AF4-AF9 inh,Beta apoptosis,RanGTP-Impb inh,T cruzi inh,Vif A3G
CC(C)CNS(=O)(=O)c1ccc(CCC(=O)Nc2ccc3c(c2)OCO3)cc1,-4,/,/,/,0.2,/,8,-2.0,11,4%
COc1ccc(C)cc1S(=O)(=O)N(C)CC(=O)N1CCCCCC1,-8,/,/,/,0.9,/,-1,2.9,-2,7%
CN(Cc1cnccn1)Cc1c(C(=O)N2CCc3ccccc3C2)nc2ccc(Cl)cn12,31,0,2,1.4,0.4,3.7,-6,-3.4,11,/
O=C(NCc1ccccc1)c1c(O)c2ccccc2[nH]c1=O,-2,14,19,0.4,0.6,-7.4,/,-3.1,-5,/
NC(=O)C1CCN(C(=O)c2ccc3c(=O)n(Cc4cccc(Br)c4)c(=S)[nH]c3c2)CC1,-6,-8,-12,4.9,1.6,-0.2,-5,0.0,-8,/
C/C(=N\NC(=O)c1cc(C)nc2ccccc12)c1ccccn1,/,-24*,-17*,-6.7*,-2.8,-0.1,104*,/,/,/
COc1ccccc1N1CCN(C(=O)CSc2ccccc2)CC1,15,/,/,/,0.3,/,-6,-1.5,-4,5%
COc1ccc(/C(O)=C2/C(=O)C(=O)N(c3ccccn3)C2c2ccc(OC)c(OC)c2)cc1 (stereo unspecified),-8,-1,5,1.1,-0.1,-4.9,1,1.1,-9,10%
CCOc1ccc(C(=O)N(CC)CC(=O)Nc2ccc3c(c2)OCCO3)cc1OCC,/,-1,8,-0.4,1.4,-22,-1,/,/,-2%
CCC1CCCCN1C(=S)NC(=O)c1ccco1 (stereo unspecified),/,3,8,-0.5,-0.8,-0.9,-2,/,/,/
O=C(CN1CCNCC1)Nc1ccc(Oc2ccccc2)cc1,-3,/,/,/,0.5,/,-7,3.0,8,2%
O=C1CSC2(N1)C1CC3CC(C1)CC2C3 (stereo unspecified),-10,0,0,-3.4,1.0,-3.4,-4,-4.7,-5,-7%
COc1cc(/C=C(\C#N)C(=O)Nc2ccccc2C(=O)O)cc(Cl)c1OC,1,-9,4,-7.5,0.3,-2.8,5,3.4,-12,/
CC1CC(C)CN(C(=S)SCc2nc(N)nc(Nc3ccccc3)n2)C1 (stereo unspecified),2,-22*,-14*,-3.0*,0.6,-5.3,3,?,2,2%
O=C(Nc1ncc(Cc2ccccc2Cl)s1)C1CCCO1 (stereo unspecified),-3,/,/,/,0.2,/,5,2.2,23,-4%
O=C(NCCCN1CCCC1=O)c1cc(-c2ccc3c(c2)OCO3)nc2ccccc12,2,-1,-1,-0.4,0.6,-1.0,1,0.7,-8,16%
CC(=O)Nc1ccc(S(=O)(=O)Nc2cccn(Cc3ccc(C)cc3)c2=O)cc1,-5,5,4,3.0,0.3,2.7,1,-3.0,-2,-4%
Oc1ccc2ccccc2c1/C=N/c1nccs1,?,/,/,/,0.3,/,-15,-3.9,-9,-5%
C=CCNc1nc(C(=O)OCC(=O)Nc2c(Cl)cccc2C(F)(F)F)cs1,-9,10,14,-1.2,-0.2,0.6,1,3.1,6,-1%
CC1CCC2(CC1)NC(=O)N(NC(=O)CCl)C2=O (stereo unspecified),-1,19,16,-1.1,-0.5,-0.4,-1,-3.6,-7,-4%
OCC#CCSc1nnc(-c2cccc3ccccc23)o1,/,-27,-37,-9.6,-0.7,0.2,-1,/,/,/
COc1ccc(S(=O)(=O)N2CCN(C3Cc4ccccc4C3)CC2)cc1,-2,7,10,2.8,0.1,-6.3,-6,-3.1,8,1%
CCN(CC(=O)NCc1ccc(Cl)cc1)C(=O)CCc1ccccc1,2,-4,-3,-1.5,-0.2,-2.4,3,5.3,3,-9%
COc1ccc(S(=O)(=O)N2CCN(Cc3cc(=O)n4ccccc4n3)CC2)cc1,/,-1,9,-1.5,-0.2,-0.9,-5,/,/,-1%
CC1=CC(C)(C)NC(=S)N1c1ccccc1C,8,3&4,0&9,-1.5&1.3,?,0.6&-0.8,-6,2.1,-17,20%
NC1=C(c2ccc(F)cc2)C(=O)CS1,4,/,/,/,0.1,/,1,2.6,0,10%
CN(C)C(=O)/C(=C/c1ccc(-c2cccc([N+](=O)[O-])c2)o1)NC(=O)c1ccccc1,2,-1,2,-2.4,2.2,9.9,5,1.6,4,-3%
C[C@H]1CCC[C@@]2(O[C@@H](CCO)C[C@@H](O)[C@@H]2O)O1,-1,8,5,-8.5,1.2,1.5,0,-2.3,-6,/
CCN(CC)S(=O)(=O)c1ccc(O)c(C(=O)OCC(=O)N(C)Cc2ccccc2)c1,-15,/,/,/,1.0,/,-3,4.0,-1,-3%
CC(=O)c1ccc(-c2ccc(/C=C(/Sc3n[nH]c(C)n3)C(=O)O)o2)cc1,1,-3,8,5.1,0.0,-2.0,6,6.3,3,18%
Cc1ccc(-c2ccc(=O)n(CCC(=O)NCCN3CCCCC3C)n2)cc1 (stereo unspecified),/,/,/,/,-0.9,/,6,1.5,6,-6%
CCN(C[C@H]1N[C@@](C)(C(=O)OC)[C@H]2C(=O)N(Cc3ccccc3)C(=O)[C@@H]12)S(=O)(=O)c1ccc(F)cc1,/,7,3,23,-0.6,-5.1,-2,/,/,2%
Cc1cccc(NC(=S)NC2CC3CCCC(C2)N3Cc2cccs2)c1 (stereo unspecified),-27,/,/,/,-0.3,/,-4,-2.4,-3,-2%
CCC(CC)C(=O)OCC(=O)Nc1cccc(S(=O)(=O)N(C)c2ccccc2)c1,0,-34,-64,-0.3,-0.3,-8.5,-8,-4.7,-7,11%
O=C(/C=C\c1ccccc1[N+](=O)[O-])Nc1ccccc1,38,-4,0,-0.8,-2.5,0.7,6,-2.5,10,-4%
COc1ccccc1-n1c(N)cc(=O)nc1SCC(=O)Nc1cc(C)on1,-7,7,8,-4.8,0.4,-2.9,-2,-0.4,3,/
O=C(Nc1ccc(N2CCOCC2)cc1)C1CC(=O)N(c2ccc(Cl)cc2)C1 (stereo unspecified),6,-4,4,-5.9,1.0,-1.6,7,4.3,-2,-3%
CC(=O)c1ccc(OCC(O)CN2CCC(C)CC2)cc1 (stereo unspecified),-8,12,1,1.1,0.2,3.7,-12,-2.2,-9,16%
COc1ccc(Cl)cc1C(=O)Nc1cccnc1Cl,-19,2,3,-0.1,0.3,0.0,4,3.2,-7,6%
COc1ccc(NC(=O)N2CCCC(C(=O)NCc3ccccc3F)C2)cc1 (stereo unspecified),-5,4,0,-2.7,-0.1,-3.6,-4,1.7,0,0%
CCc1ccc(N2CC(C(=O)OCC(=O)NC3CCS(=O)(=O)C3)CC2=O)cc1 (stereo unspecified),-3,/,/,/,0.9,/,-6,0.8,-6,9%
CCN(CC(=O)NCCc1ccc(S(N)(=O)=O)cc1)Cc1ccccc1,-10,10,7,1.2,-0.2,-1.8,-2,4.2,7,/
Cc1ccc(NC2CCCN(C(=O)CCN3CCOCC3)C2)cc1C (stereo unspecified),-1,10,17,3.6,0.0,-1.9,0,0.9,-3,/
CCOC(=O)c1cccc(NC(=O)CSc2nnc(C3CCCCC3)n2C)c1,7,/,/,/,0.1,/,-7,-1.5,-3,7%
CC1CCCC(NC(=O)COC(=O)c2cccs2)C1C (stereo unspecified),/,8,9,4.8,-0.3,-0.7,6,/,/,-13%
Cc1ccc(OCc2ccc(Br)cc2)c([N+](=O)[O-])n1,18,-15,-16,-8.3,-1.4,-0.1,-6,1.1,-1,-1%
CCOC(=O)C1=C(C)NC(=O)NC1c1ccc(OC(=O)c2ccco2)cc1 (stereo unspecified),-3,/,/,/,0.6,/,6,0.4,-20,19%
O=C(Nc1cccc(F)c1)Nc1ccnn1C1CCN(C(=O)CCN2CCCO2)CC1,-4,5,18,-0.4,0.1,7.7,-2,1.0,-10,/
Fc1ccc(COc2ccc(C(=S)N3CCCC3)cc2)cc1,12,-25,-40,-11,-2.8,5.2,7,3.0,4,/
COc1ccc(NS(=O)(=O)c2ccc(NS(=O)(=O)c3cccs3)cc2)c(OC)c1,4,2,-17,0.0,-1.1,-0.7,0,6.1,10,/

# Carrying on:
SMILES,Calb FLC,Ecoli rRNA inh,Ecoli rRNA inh OD600,Ecoli rRNA inh RFP,A1 inh,AF4-AF9 inh,Beta apoptosis,RanGTP-Impb inh,T cruzi inh,Vif A3G
CCNc1nc2c(c(=O)[nH]c(=O)n2C)n1Cc1ccc(F)cc1,3,3,5,-3.8,0.1,-1.0,0,-1.6,4,?
CCC1(C)Cc2c(sc3[nH]c(=S)[nH]c(=S)c23)CO1 (stereo unspecified),-4,7,8,-0.3,-1.0,-0.7,-2,4.9,3,-10%
Cc1ccc(S(=O)(=O)/N=C(/NC(=S)Nc2ccccc2)c2ccccc2)cc1,-50,/,/,/,-2.9,/,-1,-1.2,-3,-6%
O=C(Cc1ccc(Cl)cc1)Nc1ccccc1N1CCOCC1,1,/,/,/,-0.2,/,-2,-0.4,-1,0%
Clc1ccccc1Cn1nnc2c(NCCN3CCOCC3)ncnc21,1,/,/,/,0.2,/,-5,3.1,-1,2%
Nc1nc2n(n1)C(c1ccco1)CC(c1ccc(Cl)c(Cl)c1)N2 (stereo unspecified),-4,/,/,/,1.2,/,1,-1.3,33,2%
Nc1ccccc1N=Cc1ccc(-c2cccc(Cl)c2)o1,4,-26*,-20*,10*,-1.5,1.5,8,-3.7,43,/
Cc1ccc(S(=O)(=O)c2cn(C)c3cc(N4CCN(C)CC4)c(F)cc3c2=O)cc1,-9,-2,6,-2.1,1.0,-0.7,-6,-0.6,10,/
Cc1ccc(-c2nnn(CC(=O)N3CCCc4ccccc43)n2)cc1,13,/,/,/,-0.8,/,0,1.2,18,3%
O=C(CC1S/C(=N/N=C/c2ccco2)NC1=O)Nc1ccccc1 (stereo unspecified),?,9,6,-1.9,0.2,0.3,-5,139*,-15,-3%
Cc1[nH]c2ccccc2c1SCc1n[nH]c(=S)n1C,2,-19,-15,-1.4,0.3,-3.5,/,-4.7,-16,9%
COc1ccccc1NS(=O)(=O)c1ccc2oc(SC(C)C(=O)N3CCNC3=O)nc2c1 (stereo unspecified),/,2,3,-1.8,0.3,-0.8,4,/,/,/
CC(=O)Nc1ccc(NC(=O)CSCc2ccccc2Cl)cc1,-9,-11,-7,1.0,-0.1,-0.5,2,1.0,-24,/
Cc1cccc(OCCCC(=O)Nc2ccc(S(=O)(=O)Nc3nccs3)cc2)c1C,-6,-48,-73,-16,-0.4,-0.7,-4,?,1,/

# Only part of the results is shown; count on the stated rates, not on these rows.
